Screens (PubChem)
MT1-MMP act inh: MT1-MMP (human) activation inhibition. 0.061% of 360,000 active. GFP/RFP ratio change, % at 20 µM. AID 651647. HT1080 RFP-PRO-GFP cells, GFP/RFP ratio fluorescence, overnight; percent of plate control window, DMSO zero;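 active = GFP/RFP ratio change of at least 30% with cell ATP level not reduced by more than half and red fluorescence within 50% of control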; also: strong numbers were not always called active
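Read-out: GFP/RFP fluorescence ratio; Test system: RFP-PRO-GFP reporter HT1080 cells; Compound dosing: single-point 20 µM compound, 1% DMSO; Times: overnight compound exposure at 37 °C.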
PABP FP inh: blocks human PABP binding to poly(A) RNA; 1% of 290,000 active; fluorescence polarization; P11940; inhibition, % at 35 µM;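 active = 50% or more with normal probe brightness, or confirmed in later tests; inconclusive = above 50% with abnormal brightness, or retests that disagree; inactive = below 50% or failed in later tests; about a fifth of its hits are not listed in these tables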;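 also: calls also rest on retests at 20 µM and on dose response follow-up; controls were probe without protein and protein plus probe with vehicle; some compounds called inactive have numbers as strong as hits; many hits fall short of the cut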
Target sequence (P11940 whole entry, looked up): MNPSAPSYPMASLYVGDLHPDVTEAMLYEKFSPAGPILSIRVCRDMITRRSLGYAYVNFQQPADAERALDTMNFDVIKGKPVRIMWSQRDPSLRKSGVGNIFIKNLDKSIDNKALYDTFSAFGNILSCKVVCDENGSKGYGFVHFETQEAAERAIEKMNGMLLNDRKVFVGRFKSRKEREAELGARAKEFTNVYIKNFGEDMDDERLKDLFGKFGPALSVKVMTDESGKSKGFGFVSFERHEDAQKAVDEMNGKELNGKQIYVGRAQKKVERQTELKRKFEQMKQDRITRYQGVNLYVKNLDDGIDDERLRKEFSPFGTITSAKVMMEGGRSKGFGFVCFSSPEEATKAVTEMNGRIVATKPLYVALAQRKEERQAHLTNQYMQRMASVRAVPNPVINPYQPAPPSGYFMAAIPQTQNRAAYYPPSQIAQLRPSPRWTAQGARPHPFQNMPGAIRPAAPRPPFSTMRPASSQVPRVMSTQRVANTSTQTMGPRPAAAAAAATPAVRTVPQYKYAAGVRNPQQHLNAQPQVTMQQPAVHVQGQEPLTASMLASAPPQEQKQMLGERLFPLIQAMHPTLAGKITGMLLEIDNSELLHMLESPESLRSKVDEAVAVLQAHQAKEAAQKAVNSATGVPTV
CSC inhib: cancer stem cell inhibition; cancer stem cell-like cells viability, luminescence; inhibition, % at 7.5 µM; 1.1% of 300,000 active;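 active = mean at 75% or more and at least half the replicates too; inconclusive = mean and replicates disagree; tested in HMLE shEcad cells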;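 also: 0% = median of negative and 100% = median of positive control wells; the first replicate is given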
eIF4H FP inh: inhibitors of RNA binding by human eIF4H | Q15056 | eIF4H fluorescence polarization binding assay | inhibition, % at 35 µM | 0.94% of 290,000 active;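 active = 50% or more with normal probe brightness, or confirmed in later tests; inconclusive = above 50% with abnormal brightness, or retests that disagree; inactive = below 50% or failed in later tests; about a fifth of its hits are not listed in these tables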;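 also: calls also rest on retests at 20 µM and on dose response follow-up; 0% = protein and probe with vehicle and 100% = probe without protein; strong numbers were not always called active; many hits fall short of the cut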
HIV Env fusion: blocks HIV Env-driven cell-cell fusion; HeLa-JRFL Env/CEM21 cell fusion, luciferase; inhibition, % at 12.3 µM; 1.1% of 360,000 active;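 active = mean replicate inhibition score of at least 50 and every replicate individually at or above 50; inconclusive = only one of the two criteria met; inactive = mean below 50 and not all replicates reaching 50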;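 also: 0% = plate neutral controls and 100% = maraviroc near 300 nM; one replicate is shown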
Rce1 inh: inhibitors of yeast Ras-converting enzyme. yeast membranes, quenched prenylated peptide cleavage fluorescence. Q03530. calls only. 0.27% of 290,000 active;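 active = fall in fluorescence gain of 50% or more versus controls, with final raw signal at or below 3038400; inconclusive = same 50% fall but final raw signal above 3038400; inactive = fall in fluorescence gain under 50%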;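 also: plate controls were neutral control wells for no effect and wells lacking membranes for full effect; tested at 10 µM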
UUG fidelity: alters start codon recognition fidelity in yeast; AID 602363; activity score, % at 18.7 µM; S. cerevisiae UUG-firefly luciferase reporter, luminescence/redox ratio; 0.13% of 350,000 active;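 active = replicate mean at a twofold rise or more, about +100% in these data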;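 also: firefly luciferase made from a UUG start codon reports start codon fidelity; reporter light over untreated wells divided by growth signal over untreated wells; some hits fall short of that in this replicate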
eIF4H FP inh retest: second read-out of eIF4H FP inh, no call of its own (marks repeat the call); inhibition, %; compound at 20 µM; confirmation average;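 mean of two retest wells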
PABP FP inh retest: recorded beside PABP FP inh, whose call it bears; inhibition, %; compound at 20 µM; confirmation repeats;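 mean of two retest wells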
MT1-MMP act inh RFP: further read-out of MT1-MMP act inh, marked with its call; RFP signal change, %; measured here: RFP expression control read;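 0 = vehicle wells; hits needed this value within 50% of zero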
Active calls of the source: *; i = inactive; u = inconclusive; x = not tested or not shown.

SMILES	MT1-MMP act inh	MT1-MMP act inh RFP	PABP FP inh	CSC inhib	eIF4H FP inh	HIV Env fusion	Rce1 inh	UUG fidelity	others
COc1ccc(C(=O)Nc2cccc(S(=O)(=O)N3CCCC3)c2)cc1S(=O)(=O)N1CCOCC1	11	1	x	3	x	0	x	-3
COCCN(C(=O)c1ccco1)c1nnc(-c2ccc(OC)cc2)s1	-1	-5	-2	-23	-4	-69	i	x
O=C(O)CCN1CC2([N+](=O)[O-])C=CC(=O)C([N+](=O)[O-])(C1)C2CC(=O)c1ccccc1 (stereo unspecified)	-2	-3	4	19	78	-16	i	-2	eIF4H FP inh retest=-4;PABP FP inh retest=4
Cc1ccc(-c2cn3c(n2)CCCC3)cc1	4	1	5	-12	4	5	i	-4
CN(C)N1C(N)=C(C#N)C(c2ccccc2)C2=C1CCCC2=O (stereo unspecified)	2	-3	-6	-16	4	4	i	x
CSCCC(NC(=O)c1ccco1)C(=O)N(C)CC(=O)Nc1c(Cl)cccc1Cl (stereo unspecified)	1	2	x	-14	x	-5	i	x
CCOP(=O)(c1ccccc1Cl)C1(O)CCCCC1 (stereo unspecified)	1	-1	-7	7	-5	x	i	-10
O=C1c2ccccc2C(=O)N1c1nc2nccc(-c3ccccc3)n2n1	-1	4	-10	-6	-18	-26	i	-20
Cc1cccc(NC(=O)NCC(F)(F)F)n1	-3	3	-6	-4	1	-127	i	-15
CC(C)(C)c1ccc(-c2nc3n(c(=O)c2C#N)CCS3)cc1	3	-1	-6	-11	-20	3	i	x
Brc1ccc2nc3c(n2c1)CCCC3	-5	-1	2	13	7	-174	i	-17
NC(=O)NCc1ccccc1	0	2	1	-4	11	-11	i	-16
Clc1cccc(NC2=NCCC2)c1	6	10	6	-5	7	x	x	-10
COc1ccc(NC(=O)N(C)C[C@H]2Oc3c(NC(=O)Cc4ccccc4)cccc3C(=O)N([C@H](C)CO)C[C@@H]2C)cc1	-4	4	x	x	x	-20	x	-1
O=C(Nc1ccccc1C(=O)NC(Cc1c[nH]c2ccccc12)C(=O)O)c1ccccc1 (stereo unspecified)	-8	-3	10	-5	-1	5	i	x
CCOC(=O)C1CCCN(C(=O)c2cc3nc(-c4ccc5c(c4)OCO5)cc(C(F)(F)F)n3n2)C1 (stereo unspecified)	-4	-7	2	-5	-6	47	i	-4
Cc1ccn(CC(C)C(=O)O)n1 (stereo unspecified)	0	3	7	-13	1	-2	i	-15
O=C(CNS(=O)(=O)c1ccccc1)N/N=C/c1ccncc1	-2	-2	x	-15	x	-2	x	-13
O=C(Cc1ccccc1)Nc1ccc2oc(-c3cccnc3)nc2c1	-4	0	0	-2	-7	x	i	-22
Cc1c(Cl)cccc1NC(=S)N1CCC(N(C)CC2CCCO2)CC1 (stereo unspecified)	5	-2	7	2	-3	2	i	-8
Cc1cccc(C(=O)NCC(=O)N2CCOCC2)c1	-2	1	-16	-11	-2	-13	i	-14
CC1CCCCC1NC(=O)CN(C)S(=O)(=O)c1cccc2nsnc12 (stereo unspecified)	1	2	-8	-6	-3	x	i	x
Cn1c(NCc2ccccc2F)nc2cc(-c3ccsc3)sc2c1=O	1	-17	x	x	x	27	x	-13
O=C(Cc1ccccc1C(=O)O)Nc1cccc2ccccc12	3	2	15	8	29	9	x	5
N#CC1=C(N)N(c2ccc(Br)cc2)C2=C(C(=O)CCC2)C1c1cccnc1 (stereo unspecified)	x	x	10	-3	2	-41	i	-15
Cc1nn(-c2ccccc2)c(C)c1/C=N/NC(=O)c1cc(C2CC2)[nH]n1	4	5	16	-8	0	x	i	x
O[C@@H](CNC[C@H](O)c1ccccc1)c1ccccc1	-4	0	5	-1	2	-3	i	3
Cc1ccccc1OCCOc1ccc([N+](=O)[O-])cc1/C=N/n1cnnc1	12	-5	46	53	-8	-14	i	x
C=CC1C(N2CCOCC2)C(C)(C)S1(=O)=O (stereo unspecified)	0	4	-2	6	-2	x	i	-12
CS/C(=C\[N+](=O)[O-])Nc1ccc(OC(F)(F)F)cc1	-3	-2	-7	24	1	-11	i	-10
COCCOC(=O)C1=C(C)Nc2nc(C)nn2C1c1ccccc1 (stereo unspecified)	6	4	-6	-5	-1	-3	i	0
COc1ccc(CC(=O)N2CCN(c3cccc(Cl)c3)CC2)cc1OC	-2	-2	3	-10	0	12	i	6
O=C1c2ccccc2C(O)N1c1ccc(Cl)cc1 (stereo unspecified)	0	0	4	-6	0	-39	i	6
CC(=O)[C@H]1[C@@H]2C(=O)N(c3cccc(Cl)c3)C(=O)[C@@H]2[C@H]2c3ccccc3C=CN21	-20	12	56*	-8	62	x	i	-25	eIF4H FP inh retest=43;PABP FP inh retest=52*
Cc1ccc(OCCNC(=O)c2cncc(Br)c2)cc1C	2	0	-1	53	6	x	i	x
CC(C(=O)O)C1SC(=O)NC1=O (stereo unspecified)	-2	2	20	6	-14	x	i	-23
CCc1nc(SCC(=O)N2CCOCC2)c2c(=O)n(C)c(=O)n(C)c2n1	4	2	-4	-1	-5	6	i	-17
Cc1ccc(S(=O)(=O)N2CCc3ccccc3C2)cc1C	-3	-2	-4	3	-10	26	i	-15
O=C(NCCOC(=O)c1ccncc1)c1ccccc1	2	1	-1	3	2	x	x	5
COc1ccc(NC(=O)CN(C)Cc2cccs2)cc1Cl	5	2	8	29	0	-5	i	-10
Cc1ccc(OCC(=O)N(Cc2ccco2)c2c(N)n(Cc3ccccc3)c(=O)[nH]c2=O)cc1C	-2	1	x	x	x	5	x	3
O=C(NCCc1cn2ccccc2n1)c1ccccc1F	3	1	0	3	0	x	i	-15
Cn1c(=O)c(-c2cc(Br)ccc2N)nc2ccccc21	-4	1	3	-17	8	x	i	-4
Cc1c(NS(=O)(=O)c2ccc3c(c2)OCCO3)cccc1-c1nc2cccnc2s1	11	-28	6	13	-6	44*	i	-3
CC(=O)N1CCc2cc(S(=O)(=O)NCc3ccc(C)cc3)ccc21	5	-9	10	-5	-6	10	i	-1
CC1=CCC2C(=O)N(c3ccc(C(=O)N4CCCCCC4)cc3)C(=O)C2C1 (stereo unspecified)	1	1	2	6	7	x	i	-5
COc1ccc(CCNC(=O)CS(=O)(=O)c2cn(CC(=O)N3CCOCC3)c3ccccc23)cc1OC	-2	4	8	12	3	-5	i	x
COC(=O)c1sc(-c2ccc(C(C)(C)C)cc2)cc1NC(=O)/C=C/C(=O)O	-4	-7	-6	119*	-6	-87	i	-29
COc1ccc2cc(C(=O)C3CCCN(C(=O)c4cc5nc(C)cc(C)n5n4)C3)ccc2c1 (stereo unspecified)	3	-4	2	3	4	-2	i	-12
O=C(NCc1ccccc1)C(c1ccccc1)N(C(=O)c1csnn1)c1ccccc1 (stereo unspecified)	-2	0	-2	-17	-4	7	i	-9
Cn1c(=O)c2cn3ncccc3c2n(C)c1=O	x	x	10	x	-1	x	i	x
Cc1ccc([C@H]2N[C@]3(CCCN(Cc4ccc(F)cc4)C3=O)[C@H]3C(=O)N(C)C(=O)[C@@H]23)cc1	2	0	x	x	x	-11	x	-4
O=C(Nc1ccc(Cl)c(Cl)c1)Nc1ccc([N+](=O)[O-])cn1	-1	-1	6	10	2	-23	i	-6
CC(=O)C1C(c2ccc([N+](=O)[O-])cc2)C2C(C)=NN=C2CC1(C)O (stereo unspecified)	-2	5	-2	3	1	3	i	x
COc1ccc(CCN2CC(C(=O)NCCN3CCNC3=O)CCC2=O)cc1 (stereo unspecified)	0	2	5	3	4	-1	i	-7
O=C(Nc1ccncc1)c1ccccc1Cl	-7	-8	-3	-8	-4	12	i	-15
Cc1cnc(C(=O)OCC(=O)N2CCN(C(=O)c3ccco3)CC2)cn1	0	4	5	x	-5	x	i	-11
Cc1cc(N2CCc3ccccc32)n2ncnc2n1	11	11	x	x	x	i	i	-15
O=C1C2C3C=CC(C4CC34)C2C(=O)N1c1nccs1 (stereo unspecified)	0	0	12	-11	6	x	i	x
CCOC(=O)c1c(N)sc2c1CCCC2=O	-4	-2	2	-18	-6	3	i	x

16 compounds out of the list, arranged by formula weight, falling.
SMILES	MT1-MMP act inh	MT1-MMP act inh RFP	PABP FP inh	CSC inhib	eIF4H FP inh	HIV Env fusion	Rce1 inh	UUG fidelity	others
COc1ccc(CCNC(=O)CS(=O)(=O)c2cn(CC(=O)N3CCOCC3)c3ccccc23)cc1OC	-2	4	8	12	3	-5	i	x
Cc1c(NS(=O)(=O)c2ccc3c(c2)OCCO3)cccc1-c1nc2cccnc2s1	11	-28	6	13	-6	44*	i	-3
Cc1ccc([C@H]2N[C@]3(CCCN(Cc4ccc(F)cc4)C3=O)[C@H]3C(=O)N(C)C(=O)[C@@H]23)cc1	2	0	x	x	x	-11	x	-4
COC(=O)c1sc(-c2ccc(C(C)(C)C)cc2)cc1NC(=O)/C=C/C(=O)O	-4	-7	-6	119*	-6	-87	i	-29
CC1=CCC2C(=O)N(c3ccc(C(=O)N4CCCCCC4)cc3)C(=O)C2C1 (stereo unspecified)	1	1	2	6	7	x	i	-5
Cc1cnc(C(=O)OCC(=O)N2CCN(C(=O)c3ccco3)CC2)cn1	0	4	5	x	-5	x	i	-11
CC(=O)N1CCc2cc(S(=O)(=O)NCc3ccc(C)cc3)ccc21	5	-9	10	-5	-6	10	i	-1
Cn1c(=O)c(-c2cc(Br)ccc2N)nc2ccccc21	-4	1	3	-17	8	x	i	-4
CC(=O)C1C(c2ccc([N+](=O)[O-])cc2)C2C(C)=NN=C2CC1(C)O (stereo unspecified)	-2	5	-2	3	1	3	i	x
O=C(Nc1ccc(Cl)c(Cl)c1)Nc1ccc([N+](=O)[O-])cn1	-1	-1	6	10	2	-23	i	-6
O=C(NCCc1cn2ccccc2n1)c1ccccc1F	3	1	0	3	0	x	i	-15
O=C1C2C3C=CC(C4CC34)C2C(=O)N1c1nccs1 (stereo unspecified)	0	0	12	-11	6	x	i	x
Cc1cc(N2CCc3ccccc32)n2ncnc2n1	11	11	x	x	x	i	i	-15
CCOC(=O)c1c(N)sc2c1CCCC2=O	-4	-2	2	-18	-6	3	i	x
O=C(Nc1ccncc1)c1ccccc1Cl	-7	-8	-3	-8	-4	12	i	-15
Cn1c(=O)c2cn3ncccc3c2n(C)c1=O	x	x	10	x	-1	x	i	x

Further compounds:
SMILES	MT1-MMP act inh	MT1-MMP act inh RFP	PABP FP inh	CSC inhib	eIF4H FP inh	HIV Env fusion	Rce1 inh	UUG fidelity	others
COc1ccccc1NS(=O)(=O)c1cc(NC(=O)c2ccncc2)ccc1N1CCOCC1	0	-3	8	22	-4	-119	i	x
Cc1sc2nc(CSc3nc4ccccc4c(=O)n3CCCN3CCOCC3)[nH]c(=O)c2c1C	-23	4	122*	-11	u	-43	i	-8	PABP FP inh retest=110*
CCC(C)S(=O)(=O)c1snnc1C (stereo unspecified)	1	5	-1	-6	-6	x	i	-10
COc1ccccc1-n1c(-c2cc(-c3ccco3)[nH]n2)n[nH]c1=S	0	4	39*	3	58*	11	i	-16	eIF4H FP inh retest=74*;PABP FP inh retest=57*
CCOc1ccc(C(=O)Nc2cccc3cccnc23)cc1	-4	-1	-9	-8	-4	-14	i	-3
O=C(Cn1nnc(-c2ccccc2)n1)OCc1ccccc1	-2	3	-2	-7	-2	6	i	-6

Rows are unselected. Share with any hit: about 2.9%.
